# Vaccinia stage = blocks a specific stage of Vaccinia orthopoxvirus infection; Vaccinia-infected cells, mCherry/Venus stage reporter fluorescence; hits give low values; some inactives read as strong as hits; activity change (mCherry), % (test concentration not listed); actives 0.01% (n = 89,000); AID 1053133;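 active = mCherry past -33% and 40 or more points under the early reporter, replicates agreeing; inconclusive = past -33% without that gap or agreement; tested in A549 cells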;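 also: scaled between vehicle wells and reference inhibitor wells; 23 nL library stock went into each well; one replicate is shown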
# Vaccinia stage Venus = second read-out of Vaccinia stage, no call of its own (marks repeat the call); activity change (Venus), %; measured here: Venus reporter, other viral stage;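 negative = less Venus signal; first of two replicates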
# The depositor's hits bear a star; ? = inconclusive; / = no result given; & = joins results of further samples. Not all compounds are listed; count on the stated rates, not on these rows.
SMILES,Vaccinia stage,Vaccinia stage Venus
C[C@H](CO)N1C[C@H](C)[C@H](CN(C)Cc2ccc(C(F)(F)F)cc2)Oc2ccc(NC(=O)Nc3ccc4c(c3)OCO4)cc2C1=O,-16,-15
C[C@@H]1CN([C@@H](C)CO)C(=O)c2cccc(NC(=O)C3CCOCC3)c2O[C@H]1CN(C)S(=O)(=O)c1ccccc1,27,12
Cc1ccc(S(=O)(=O)N(C)C[C@H]2OCCCC[C@H](C)Oc3ccc(NS(=O)(=O)c4ccc(Cl)cc4)cc3C(=O)N([C@H](C)CO)C[C@@H]2C)cc1,?,/
C[C@H](CO)N1C[C@H](C)[C@@H](CN(C)Cc2ccc(Cl)c(Cl)c2)OCCCC[C@H](C)Oc2ccc(NS(=O)(=O)c3cn(C)cn3)cc2C1=O,-30,-24
C[C@H]1CN([C@@H](C)CO)C(=O)c2cc(NC(=O)CCCCCC(=O)Nc3ccccc3N)ccc2O[C@@H]1CN(C)S(=O)(=O)c1cccs1,17,11
COCC(=O)N(C)C[C@@H]1Oc2cc(C#CCN(C)C)ccc2S(=O)(=O)N([C@@H](C)CO)C[C@@H]1C,4,3
COCC(=O)Nc1ccc2c(c1)C(=O)N(C)[C@H]1CC[C@H](CC(=O)NCCc3ccccc3)O[C@@H]1CO2,9,11
COc1ccc(S(=O)(=O)N(C)C[C@H]2Oc3c(cccc3N(C)C)C(=O)N([C@@H](C)CO)C[C@@H]2C)cc1,15,5
CCCN1C[C@H](C)[C@H](OC)CN(C)C(=O)c2cc(NS(=O)(=O)c3cn(C)cn3)ccc2OC[C@H]1C,14,17
Cc1noc(C)c1NC(=O)Nc1cccc2c1O[C@@H](CN(C)S(=O)(=O)c1ccc(F)cc1)[C@H](C)CN([C@H](C)CO)C2=O,6,0
CO[C@@H]1CN(C)C(=O)c2ccc(NC(=O)Cc3ccccc3)cc2OC[C@@H](C)NC[C@@H]1C,-3,2
C[C@H]1CN([C@@H](C)CO)S(=O)(=O)c2ccc(C#CC3CCCCC3)cc2O[C@@H]1CN(C)C,-26,-29
CC(C)C(=O)Nc1ccc2c(c1)C(=O)N(C)[C@H]1CC[C@@H](CC(=O)NCc3ccc(F)cc3)O[C@H]1CO2,-1,-3
C[C@@H]1CN([C@H](C)CO)S(=O)(=O)c2ccc(C#CC3CC3)cc2O[C@H]1CN(C)S(C)(=O)=O,-8,-10
O=C(N[C@H]1CC[C@H](CC(=O)N2CCOCC2)O[C@@H]1CO)c1ccccn1,19,12
C[C@@H]1CN([C@@H](C)CO)C(=O)c2cccc(NC(=O)Nc3ccccc3)c2O[C@@H]1CN(C)C(=O)Nc1ccc(F)cc1,-28,-24
CCNC(=O)[C@H]1[C@H](CO)[C@H]2Cn3c(ccc(-c4ccccc4F)c3=O)[C@H]2N1C(C)=O,9,6
COc1ccc(CN(C)C[C@@H]2OCCCC[C@@H](C)Oc3ccc(NC(=O)NC4CCCCC4)cc3C(=O)N([C@@H](C)CO)C[C@H]2C)cc1,?,/
C[C@H]1CN([C@@H](C)CO)S(=O)(=O)c2ccc(-c3ccc(F)cc3)cc2O[C@H]1CN(C)C(=O)Nc1ccccc1F,?,/
O=C(C[C@H]1CC[C@@H](NC(=O)CC2CC2)[C@@H](CO)O1)NCc1ccc(Cl)cc1,9,8
CCCN(C)C[C@@H]1Oc2cc(C#Cc3cccc(OC)c3)ccc2S(=O)(=O)N([C@@H](C)CO)C[C@@H]1C,-23,-13
C[C@@H]1CN([C@H](C)CO)C(=O)c2cc(-c3cncnc3)cnc2O[C@@H]1CN(C)C(=O)CN1CCOCC1,14,-7
CCCN1C[C@H](C)[C@@H](OC)CN(C)C(=O)c2cc(NC(=O)c3ccccc3)ccc2OC[C@H]1C,7,10
C[C@H]1CN([C@@H](C)CO)S(=O)(=O)c2ccc(C#CC3CC3)cc2O[C@@H]1CN(C)C,-8,-15
C[C@H]1CN([C@@H](C)CO)C(=O)c2cccc(NS(C)(=O)=O)c2O[C@@H]1CN(C)S(=O)(=O)c1ccc(Cl)cc1,7,2
O=C(C[C@H]1C[C@@H]2c3cc(NC(=O)NC4CCCCC4)ccc3O[C@@H]2[C@@H](CO)O1)NC1CCCC1,9,0
CN1c2ccc(Br)cc2[C@@H]2[C@@H](CCN2S(=O)(=O)c2ccccc2)[C@@H]1CO,-33,-26
C[C@@H]1CCCCO[C@H](CN(C)Cc2ccc(Cl)c(Cl)c2)[C@@H](C)CN([C@H](C)CO)C(=O)c2cc(NC(=O)c3ccccc3)ccc2O1,-11,-14
CC(=O)NC[C@@H]1[C@H](c2ccccc2)[C@@H](CO)N1C(=O)Cc1cccnc1,15,5
COc1ccc(NC(=O)N(C)C[C@@H]2Oc3c(NS(C)(=O)=O)cccc3C(=O)N([C@H](C)CO)C[C@@H]2C)cc1,15,7
O=C(NC[C@H]1[C@H](c2ccccc2)[C@@H](CO)N1C(=O)Cc1ccncc1)C1CCC1,-13,-11
O=C(CC1CC1)N1[C@H](CO)[C@H]2c3ccccc3N(S(=O)(=O)c3ccccc3)C[C@H]21,-2,-1
C[C@@H]1CN([C@H](C)CO)C(=O)Cc2cc(NS(=O)(=O)c3ccc(Cl)cc3)ccc2O[C@H]1CN(C)S(=O)(=O)c1ccc(F)cc1,32,12
CN1C(=O)[C@@H]2[C@@H](CC(COc3ccccc3)=C3[C@@H](c4ccccc4)OB(O)C[C@@H]32)C1=O,2,-2
C[C@H](CO)N1C[C@H](C)[C@H](CN(C)C(=O)NC2CCCC2)Oc2ncc(-c3cccc(F)c3)cc2C1=O,10,2
COc1ccc2c3c(n(C)c2c1)[C@@H](CO)N(C(=O)C1CC1)CC31CN(C(=O)C2CCOCC2)C1,9,12
Cc1cc(C(=O)Nc2ccc3c(c2)C(=O)N(C)[C@H]2CC[C@@H](CC(=O)NC4CCCC4)O[C@@H]2CO3)no1,6,0
C[C@H](CO)N1C[C@H](C)[C@@H](CN(C)Cc2ccccc2)Oc2ncc(C3=CCCC3)cc2C1=O,-5,-10
O=C(c1ccc(F)cc1)N1CC[C@@H]2[C@H](CO)Nc3ccc(C#Cc4ccc(F)cc4)cc3[C@@H]21,-2,8
CCCN1C[C@H](C)[C@H](OC)CN(C)C(=O)c2cc(NC(=O)NC3CCCCC3)ccc2OC[C@H]1C,-14,-10
C[C@@H]1CN([C@H](C)CO)C(=O)c2ccccc2-c2ccccc2CO[C@@H]1CN(C)S(C)(=O)=O,39,16
C[C@@H]1CN([C@H](C)CO)C(=O)c2cc(NC(=O)Nc3ccc4c(c3)OCO4)ccc2O[C@H]1CN(C)S(C)(=O)=O,36,16
CCCNC(=O)N(C)C[C@H]1Oc2cc(C3=CCCCC3)ccc2S(=O)(=O)N([C@@H](C)CO)C[C@@H]1C,?,/
O=C(C[C@@H]1C=C[C@@H](NC(=O)Nc2cc(F)ccc2F)[C@H](CO)O1)NCc1ccccn1,-1,10
COc1ccc(NC(=O)Nc2ccc3c(c2)C(=O)N([C@@H](C)CO)C[C@@H](C)[C@H](CN(C)Cc2ccc(C(F)(F)F)cc2)O3)cc1,?,/
C[C@H](CO)N1C[C@H](C)[C@@H](CN(C)S(C)(=O)=O)Oc2ccc(NC(=O)Nc3cccc4ccccc34)cc2C1=O,10,4
C[C@H]1CN([C@@H](C)CO)C(=O)c2cccc(NC(=O)C3CC3)c2O[C@@H]1CN(C)C(=O)Nc1ccc(C(F)(F)F)cc1,14,16
O=C(C1CCOCC1)N1C[C@H]2[C@@H](c3ccccc31)[C@@H](CO)N2Cc1ccccc1,-1,-2
CNC[C@H]1Oc2ccc(NS(=O)(=O)c3ccc(F)cc3)cc2C(=O)N([C@@H](C)CO)C[C@@H]1C,7,6
COc1ccc(NC(=O)N(C)C[C@@H]2Oc3ccc(NC(=O)C4CCCCC4)cc3C(=O)N([C@H](C)CO)C[C@H]2C)cc1,11,10

# Continued:
SMILES,Vaccinia stage,Vaccinia stage Venus
C[C@@H]1CN([C@@H](C)CO)S(=O)(=O)c2ccc(-c3ccc(C#N)cc3)cc2O[C@@H]1CN(C)Cc1ccccn1,-28&-35,-23&-32
Cc1cccc(S(=O)(=O)N[C@H]2CC[C@H](CCn3cc(-c4ccccn4)nn3)O[C@@H]2CO)c1,-18,-20
O=C(Nc1ccc(Cl)c(Cl)c1)N[C@@H]1CC[C@H](CCn2cc(C3CCCC3)nn2)O[C@@H]1CO,-8,-14
CCC(=O)Nc1ccc2c(c1)OC[C@@H](C)N(C(=O)Cc1cccnc1)C[C@@H](C)[C@H](OC)CN(C)C2=O,-4,-5
C[C@@H]1CN([C@@H](C)CO)C(=O)c2cc(NS(C)(=O)=O)ccc2O[C@@H]1CN(C)Cc1ccc(C(F)(F)F)cc1,2,1
O=C(C1CCCC1)N1CC2(C1)[C@H](c1ccccc1)[C@H](CO)N2CCC(F)(F)F,6,10
C[C@H]1CN([C@@H](C)CO)C(=O)c2cc(NS(C)(=O)=O)ccc2O[C@H]1CN(C)C(=O)Nc1ccc(C(F)(F)F)cc1,-4,2
CCCC(=O)Nc1ccc2c(c1)C(=O)N(C)C[C@@H](OC)[C@@H](C)CN(C(=O)c1ccncc1)[C@H](C)CO2,6,-2
CC=Cc1ccc2n(c1=O)C[C@H]1[C@H](CO)[C@@H](C(=O)NCC3CCCCC3)N(C(=O)CC)[C@@H]21 (mixture of isomers),20,7
CC(=O)N1[C@H](CO)[C@H](c2ccccc2)[C@H]1CN(C(=O)c1ccccc1F)C(C)C,-1,12
COc1cccc(CN(C)C[C@@H]2OCc3ccccc3-c3ccccc3C(=O)N([C@@H](C)CO)C[C@@H]2C)c1,-24,-19
C[C@@H]1CN([C@@H](C)CO)S(=O)(=O)c2ccc(-c3cccc(C#N)c3)cc2O[C@H]1CN(C)C(=O)Nc1ccccc1F,?,/
CO[C@H]1CN(C)C(=O)c2ccc(NC(=O)C3CC3)cc2OC[C@H](C)N(C(=O)c2ccccc2F)C[C@H]1C,12,6
C[C@@H]1CN([C@@H](C)CO)S(=O)(=O)c2ccc(-c3ccc(C(=O)N(C)C)cc3)cc2O[C@@H]1CN(C)Cc1ccccc1C(=O)O,10,0
Cc1ccc(-c2ccc3c(c2)O[C@@H](CN(C)C(=O)CN(C)C)[C@H](C)CN([C@H](C)CO)S3(=O)=O)cc1,-24,-21
Cc1ccc(S(=O)(=O)N(C)C[C@H]2Oc3cc(C#Cc4ccncc4)ccc3S(=O)(=O)N([C@H](C)CO)C[C@@H]2C)cc1,-24,-13
COc1ccc2c3c([nH]c2c1)[C@@H](CO)N(C(=O)c1ccccc1)CC31CCN(C(=O)NC(C)C)CC1,16,7
O=C(Cc1ccccc1)N1CCCCN2[C@H](CO)[C@@H](c3ccc(C#Cc4ccccc4)cc3)[C@H]2C1,-19,-13
Cc1ccc(S(=O)(=O)N(C)C[C@@H]2Oc3ccc(NS(=O)(=O)c4cccs4)cc3CC(=O)N([C@H](C)CO)C[C@H]2C)cc1,15,4
C[C@H]1CN([C@@H](C)CO)S(=O)(=O)c2ccc(-c3cccnc3)cc2O[C@@H]1CN(C)Cc1ccccn1,2,0
CO[C@@H]1CN(C)C(=O)c2cc(NC(=O)Nc3cccc(F)c3)ccc2OC[C@H](C)N(C(=O)Nc2c(C)noc2C)C[C@H]1C,14,20
CC(=O)N1CC2(C1)[C@@H](c1ccc(-c3ccc(F)cc3)cc1)[C@@H](CO)N2C(C)=O,10,12
COc1ccc(-c2ccc([C@H]3[C@@H](CO)N4C(=O)CN(Cc5ccc(F)cc5)C[C@@H]34)cc2)cc1,8,0
Cc1ccccc1S(=O)(=O)N1C[C@H](O)COC[C@H]2O[C@@H](CC(=O)N3CCC(Cc4ccccc4)CC3)CC[C@@H]21,?,/
O=S(=O)(N[C@@H]1CC[C@H](CCn2cc(C3CC3)nn2)O[C@H]1CO)c1ccc(F)cc1,-3,-6
COCC(=O)N(C)C[C@@H]1Oc2cc(C#CC(C)C)ccc2S(=O)(=O)N([C@H](C)CO)C[C@@H]1C,4,2
CCCN(C)C[C@H]1OCCCC[C@@H](C)Oc2ccc(N(C)C)cc2C(=O)N([C@@H](C)CO)C[C@H]1C,?,/

# Gathered by group: the entries above containing an aryl methoxy group
SMILES,Vaccinia stage,Vaccinia stage Venus
COc1ccc(S(=O)(=O)N(C)C[C@H]2Oc3c(cccc3N(C)C)C(=O)N([C@@H](C)CO)C[C@@H]2C)cc1,15,5
COc1ccc(CN(C)C[C@@H]2OCCCC[C@@H](C)Oc3ccc(NC(=O)NC4CCCCC4)cc3C(=O)N([C@@H](C)CO)C[C@H]2C)cc1,?,/
CCCN(C)C[C@@H]1Oc2cc(C#Cc3cccc(OC)c3)ccc2S(=O)(=O)N([C@@H](C)CO)C[C@@H]1C,-23,-13
COc1ccc(NC(=O)N(C)C[C@@H]2Oc3c(NS(C)(=O)=O)cccc3C(=O)N([C@H](C)CO)C[C@@H]2C)cc1,15,7
COc1ccc2c3c(n(C)c2c1)[C@@H](CO)N(C(=O)C1CC1)CC31CN(C(=O)C2CCOCC2)C1,9,12
COc1ccc(NC(=O)Nc2ccc3c(c2)C(=O)N([C@@H](C)CO)C[C@@H](C)[C@H](CN(C)Cc2ccc(C(F)(F)F)cc2)O3)cc1,?,/
COc1ccc(NC(=O)N(C)C[C@@H]2Oc3ccc(NC(=O)C4CCCCC4)cc3C(=O)N([C@H](C)CO)C[C@H]2C)cc1,11,10
COc1cccc(CN(C)C[C@@H]2OCc3ccccc3-c3ccccc3C(=O)N([C@@H](C)CO)C[C@@H]2C)c1,-24,-19
COc1ccc2c3c([nH]c2c1)[C@@H](CO)N(C(=O)c1ccccc1)CC31CCN(C(=O)NC(C)C)CC1,16,7
COc1ccc(-c2ccc([C@H]3[C@@H](CO)N4C(=O)CN(Cc5ccc(F)cc5)C[C@@H]34)cc2)cc1,8,0

# Screens as filed in PubChem BioAssay.
